PABP FP inh: PABP poly(A) RNA binding inhibitors, primary screen, biochemical, fluorescence polarization, uHTS; Polyadenylate-binding protein 1 (Homo sapiens), P11940; inhibition, % at 35 µM; 290,000 compounds, 1% hits;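 active = 50% or more with normal probe brightness, or confirmed in later tests; inconclusive = above 50% with abnormal brightness, or retests that disagree; inactive = below 50% or failed in later tests; about a fifth of its hits are not listed in these tables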;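 also: calls also rest on retests at 20 µM and on dose response follow-up; controls were probe without protein and protein plus probe with vehicle; some compounds called inactive have numbers as strong as hits; many hits fall short of the cut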
eIF4H FP inh: human eIF4H binding inhibitors, primary screen, translation initiation inhibitor project, biochemical, uHTS, fluorescence polarization; eIF4H fluorescence polarization binding assay; 290,000 compounds, 0.94% hits; AID 2012, 2009; Eukaryotic translation initiation factor 4H (Homo sapiens), Q15056; inhibition, % at 35 µM;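 active = 50% or more with normal probe brightness, or confirmed in later tests; inconclusive = above 50% with abnormal brightness, or retests that disagree; inactive = below 50% or failed in later tests; about a fifth of its hits are not listed in these tables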;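 also: calls also rest on retests at 20 µM and on dose response follow-up; 0% = protein and probe with vehicle and 100% = probe without protein; strong numbers were not always called active; many hits fall short of the cut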
Rce1 inh: yeast Rce1p protease inhibitors, primary screen, biochemical, fluorescence, cell-free homogeneous | yeast membranes, quenched prenylated peptide cleavage fluorescence | calls only | 290,000 compounds, 0.27% hits | AID 2563, 2010;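 active = fall in fluorescence gain of 50% or more versus controls, with final raw signal at or below 3038400; inconclusive = same 50% fall but final raw signal above 3038400; inactive = fall in fluorescence gain under 50%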;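 also: plate controls were neutral control wells for no effect and wells lacking membranes for full effect; tested at 10 µM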
Target sequence (Q03530 whole entry, looked up): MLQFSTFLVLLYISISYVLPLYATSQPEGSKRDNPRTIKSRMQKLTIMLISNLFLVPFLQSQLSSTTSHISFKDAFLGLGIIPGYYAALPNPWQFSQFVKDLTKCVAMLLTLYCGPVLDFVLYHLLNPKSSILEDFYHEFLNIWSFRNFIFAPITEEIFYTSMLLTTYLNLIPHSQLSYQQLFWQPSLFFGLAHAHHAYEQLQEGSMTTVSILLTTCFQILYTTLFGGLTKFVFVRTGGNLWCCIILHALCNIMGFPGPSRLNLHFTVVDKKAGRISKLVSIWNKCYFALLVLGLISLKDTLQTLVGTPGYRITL
Yeast UUG start: modulators of yeast start codon fidelity, primary screen, whole organism, S. cerevisiae, single point, plate reader | 350,000 compounds, 0.13% hits | S. cerevisiae UUG-firefly luciferase reporter, luminescence/redox ratio | activity score, % at 18.7 µM;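 active = replicate mean at a twofold rise or more, about +100% in these data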;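 also: firefly luciferase made from a UUG start codon reports start codon fidelity; reporter light over untreated wells divided by growth signal over untreated wells; some hits fall short of that in this replicate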
CSC inhib: cancer stem cell viability inhibitors, primary screen, luminescence; cancer stem cell-like cells viability; inhibition, % at 7.5 µM; 300,000 compounds, 1.1% hits;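 active = mean at 75% or more and at least half the replicates too; inconclusive = mean and replicates disagree; tested in HMLE shEcad cells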;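 also: 0% = median of negative and 100% = median of positive control wells; the first replicate is given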
HIV Env fusion: inhibitors of HIV-1 Env-driven cell-cell fusion, primary screen, HeLa-JRFL effector, CEM21 target cells, luciferase; inhibition, % at 12.3 µM; 360,000 compounds, 1.1% hits;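 active = mean replicate inhibition score of at least 50 and every replicate individually at or above 50; inconclusive = only one of the two criteria met; inactive = mean below 50 and not all replicates reaching 50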;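 also: 0% = plate neutral controls and 100% = maraviroc near 300 nM; one replicate is shown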
MT1-MMP act inh: blockers of MT1-MMP proenzyme processing, primary screen, HT1080 RFP-PRO-GFP cells, GFP/RFP fluorescence | Matrix metalloproteinase-14 (Homo sapiens), P50281 | GFP/RFP ratio fluorescence, overnight; percent of plate control window, DMSO zero | GFP/RFP ratio change, % at 20 µM | 360,000 compounds, 0.061% hits;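 active = GFP/RFP ratio change of at least 30% with cell ATP level not reduced by more than half and red fluorescence within 50% of control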; also: strong numbers were not always called active
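Material – HT1080 RFP-PRO-GFP cells · Control set – DMSO wells and RFP-L50D-GFP cells · Incubation – overnight cell settling, then overnight compound exposure, 37 °C, 5% CO2 · Compound dosing – single-point 20 µM compound, 1% DMSO · Read-out – GFP/RFP fluorescence ratio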
eIF4H FP inh retest: second read-out of eIF4H FP inh, no call of its own (marks repeat the call); inhibition, %; compound at 20 µM; confirmation average;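 mean of two retest wells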
PABP FP inh retest: recorded beside PABP FP inh, whose call it bears; inhibition, %; compound at 20 µM; confirmation repeats;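 mean of two retest wells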
MT1-MMP act inh RFP: also measured in MT1-MMP act inh; calls as there; RFP signal change, %; measured here: RFP expression control read;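 0 = vehicle wells; hits needed this value within 50% of zero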
The depositor's hits bear a star; i = inactive; ? = inconclusive; · = not tested or not shown; & = joins results of further samples; [ ] = another dose, or the depositor's remark. Random draw from the library. Share with any hit: about 3%.

SMILES	PABP FP inh	eIF4H FP inh	Rce1 inh	Yeast UUG start	CSC inhib	HIV Env fusion	MT1-MMP act inh	MT1-MMP act inh RFP	others
COc1ccc(/C=N/n2cnc3c(sc(=S)n3-c3ccccc3)c2=O)cc1	4	0	i	3	-2	13	2	3
Cc1cc(C(=O)NCc2cccnc2)no1	-4	-4	i	-6	5	-2	3	7
COc1cccc(-n2c(SC)nnc2-c2cnccn2)c1	-2	9	i	-8	1	-21	0	0
CCN(CC)CCOc1nc(C)nc2c1oc1ccccc12	31	-8	i	-7	-19	-102	0	7
CC(=O)[C@@H]1[C@@H]2C(=O)N(c3ccc(F)c(Cl)c3)C(=O)[C@@H]2C2c3ccccc3C=CN21 (some centres not stated)	4	59	i	·	8	·	·	·	eIF4H FP inh retest=2;PABP FP inh retest=4
C=CCN1C(=O)C(CC(=O)Nc2ccc(OCC)cc2)N(Cc2ccccn2)C1=S (configuration not stated)	-3	8	i	·	-7	-15	1	4
CN(C)C(=O)COC(=O)/C=C/c1ccccc1[N+](=O)[O-]	0	-2	i	·	-6	-19	4	9
COCCNC(=O)[C@@H]1CSC2c3ccccc3C(=O)N21 (some centres not stated)	7	2	i	-19	3	-7	4	4
CCOC(=O)/C(C#N)=C/c1c(N2CCN(C)CC2)nc2c(C)cccn2c1=O	11	16	i	-10	-4	5	-5	-1
N=c1c(S(=O)(=O)c2ccc(Cl)cc2)cc2c(=O)n3ccccc3nc2n1CCc1ccccc1	?	?	i	-8	19	0	-26	1
CC1(C)Cc2nc3sc4c(N5CCCC5)nnnc4c3cc2CO1	0	-2	i	·	·	·	·	·
COc1ccc(Cn2c(O)c(C=Nc3ccccc3)c3ccccc3c2=O)cc1	-7	-1	i	·	2	-9	-5	1
COCCNC(=O)/C(C#N)=C/c1c(N2CCN(c3ccc(OC)cc3)CC2)nc2c(C)cccn2c1=O	14	8	i	-6	-9	12	-1	-2
CC(C)(CCO)NC(=S)NC1CC2C=CC1C2 (configuration not stated)	-4	-10	i	·	-2	0	1	-3
Cc1ccccc1NC(=O)c1c(F)c(F)c(F)c(F)c1F	2	33	i	-27	-11	-2	2	5

Looked up by structure from the list above, 3 records:
SMILES	PABP FP inh	eIF4H FP inh	Rce1 inh	Yeast UUG start	CSC inhib	HIV Env fusion	MT1-MMP act inh	MT1-MMP act inh RFP	others
COc1ccc(Cn2c(O)c(C=Nc3ccccc3)c3ccccc3c2=O)cc1	-7	-1	i	·	2	-9	-5	1
CN(C)C(=O)COC(=O)/C=C/c1ccccc1[N+](=O)[O-]	0	-2	i	·	-6	-19	4	9
C=CCN1C(=O)C(CC(=O)Nc2ccc(OCC)cc2)N(Cc2ccccn2)C1=S (configuration not stated)	-3	8	i	·	-7	-15	1	4

Other compounds.
SMILES	PABP FP inh	eIF4H FP inh	Rce1 inh	Yeast UUG start	CSC inhib	HIV Env fusion	MT1-MMP act inh	MT1-MMP act inh RFP	others
O=C(CN1CCN(Cc2ccccc2)CC1)N/N=C/c1ccccc1F	16	3	i	-1	-8	8	7	3
CCCC(C(=O)NC1CCCC1)N(C(=O)c1snc(C(N)=O)c1N)c1ccc(OCC)cc1 (configuration not stated)	-2	-7	i	-9	-6	-15	1	0
CCCCNC(=O)CSc1nc(COc2ccccc2)nc2ccccc12	-4	-4	i	·	·	18	-3	-1
Nc1ccccc1Nc1ccccc1	22	6	i	·	20	·	-1	-2
Cc1ccc(/C=N/OC(=O)c2c(C)noc2-c2snnc2C)cc1	-6	5	i	·	5	17	-2	2
O=c1c(-c2ccc3c(c2)OCCO3)c(C(F)(F)F)oc2cc(O)cc(O)c12	-12	-1	i	0	47	-47	2	-4
COC(=O)CCNC(=O)Cc1ccc(S(=O)(=O)N2CCCCC2)s1	·	·	·	-8	·	-29	-3	0
O=C(CSc1nnc2scc(-c3ccccc3)n12)N1CCN(Cc2ccccc2)CC1	-7	-14	i	·	-7	-3	8	0
Cc1cc(N2CCCC2=O)cc(C)c1S(=O)(=O)NCCOc1ccc(C(C)(C)C)cc1	5	6	i	1	7	85*	-4	-30
COc1ccccc1-c1cc(-c2ccccc2)nc(SC(C(N)=O)c2ccccc2)c1C#N (configuration not stated)	-1	-17	i	·	12	-63	-2	-3
CC(=O)N1CCN(c2ccc(NC(=S)NC(=O)COc3ccc(C(C)(C)C)cc3)cc2)CC1	13	6	i	-10	21	37	-3	-20
Cc1ccnc(NC(=O)C(C)n2cc([N+](=O)[O-])cn2)c1 (configuration not stated)	12	40	i	-14	·	-11	-10	-6
Cc1cc(=O)n2nc(N3CCC(C(=O)NCc4ccccc4F)CC3)sc2n1	5	-10	i	-14	-5	0	1	4
Cc1cc(C)c2ccc3c(C)c(C)n(C)c3c2n1	6	10	i	-4	1	-9	1	5
COc1ccc(N=NC2=C(O)CC(C)(C)CC2=O)c(OC)c1	-5	?	i	10	-8	1	1	0
Cc1oc2cc([N+](=O)[O-])c(O)c([N+](=O)[O-])c2c1C(=O)c1ccc(Cl)cc1	25	-9	i	-12	33	-36	8	1
COC(CN(C)C(=O)C1CCC(CNS(=O)(=O)c2ccccc2)CC1)OC (configuration not stated)	14	-3	i	-11	-21	-6	1	1
Cc1c(O)ccc2c(-c3ccccc3)cc(=O)oc12	-3	6	i	-6	16	33	-27	-16
Cc1ccc(NC(=O)COc2ccccc2)cc1S(=O)(=O)N1CCCCC1	·	·	·	2	·	2	6	-8
CCN(CC1CCCN(CCc2cccc(OC)c2)C1)C(=O)c1ccoc1C (configuration not stated)	14	-6	i	-7	-13	-14	-1	1
COc1ccc(-n2c(=O)c3ccccc3n(CC(=O)NC3CCCC3)c2=O)cc1	-18	3	i	-5	·	·	-1	2
Cc1cc(=O)[nH]c(SCC(=O)Nc2ccc(F)c([N+](=O)[O-])c2)n1	6	11	i	-16	-5	-9	7	7
COc1ccc(Nc2cc(Nc3ccc(OC)cc3)ncn2)cc1	-1	-2	i	-13	-2	-1	-3	-5
COC(=O)[C@@]12CCCN1[C@H](c1ccc(-c3cccc(Cl)c3)c(OC)c1)[C@H]1C(=O)N(C)C(=O)[C@H]12	·	·	i	-12	-2	?	1	-3
CCCN1CCN(CC(=O)Nc2nnc(CC)s2)CC1	-3	3	i	-17	-7	-7	0	4
Cc1csc(SCC(=O)NC(C)c2ccc(F)cc2)n1 (configuration not stated)	-8	8	i	·	29	0	-2	1
CCN1CCN(c2cc(C)c3cc(NC(=O)Cc4ccccc4OC)ccc3n2)CC1	1	-16	i	1	3	-3	-7	-1
Nn1cc(-c2ccccc2)nc1SCC(=O)NCCc1ccccc1	6	0	i	-11	-5	13	-4	-5
CC1CC(C)CN(C(=O)c2ccc(NC(=O)c3ccc(=O)[nH]c3)cc2)C1 (configuration not stated)	10	-5	i	-12	-10	10	-3	0
Fc1ccc2c(c1)C1C=CCC1C(c1cc3c(cc1Br)OCO3)N2 (configuration not stated)	9	4	i	-8	7	-25	-5	-3
CCOC(=O)N1CCN(C(=O)C2CCN(S(=O)(=O)c3ccc(OC)cc3)CC2)CC1	0	0	i	·	-1	-5	3	4
CC1=NN(C2=NS(=O)(=O)c3ccccc32)C(C)(O)C1 (configuration not stated)	7	1	i	-8	-6	-3	3	5
CCOC(=O)c1sc(=NC(=O)c2ccccc2)n(C)c1C	-12	-5	i	-17	-9	-33	-1	0
C=CCn1c(C(C)(C)C)nc2ccccc21	-2	1	i	-7	1	11	-7	-1
Cn1c(=O)c2c(nc(Sc3ccccc3N)n2C)n(C)c1=O	0	-5	i	·	3	1	-1	-1
O=C(NC1CCSc2ccccc21)c1ccc(C(F)(F)F)cc1 (configuration not stated)	0	6	·	-12	-10	-29	0	1
CCN(C(=O)c1ccc(S(=O)(=O)N(C)C)cc1)C(C)C(=O)Nc1ccc(C)cc1 (configuration not stated)	-1	1	i	2	-9	8	-1	-6
Cc1noc(C)c1COC(=O)c1cccnc1SCC(=O)Nc1ccc2c(c1)OCO2	-2	-5	i	-14	-6	-11	4	1
Cc1cccc(NC(=O)C2CCN(S(=O)(=O)c3cccc4nsnc34)CC2)c1	6	10	i	-17	-14	-5	0	-5
Cc1ccc(S(=O)(=O)CCC(=O)OCc2nnc(-c3ccccc3Br)o2)cc1	·	·	·	-15	-2	·	-1	6
O=C(O)C(F)(F)S(=O)(=O)O	24	-7	i	-39	-4	-20	0	5
COc1ccc(NC(=O)c2oc3cc(C)c(C)cc3c2C)c(OC)c1	?	3	i	-23	-8	·	1	5
CC(C)CCn1nnnc1C(c1ccc(F)cc1)N1CCN(C(=O)c2ccco2)CC1 (configuration not stated)	-6	-10	i	16	-2	·	0	-1
CC(CCc1ccccc1)NC(=O)CSc1ccccc1 (configuration not stated)	4	2	i	·	0	·	0	0
COc1cc(/C=N/NC(=O)CCn2nnc3ccccc32)ccc1O	-16	-3	i	·	-15	-7	2	0
CCN(CC)S(=O)(=O)c1ccc(N2CCOCC2)c(NC(=O)c2[nH]c(C)c(C(C)=O)c2C)c1	·	·	·	-2	-14	3	22	11
Cn1c(SCC(=O)Nc2ccc(Cl)cc2)nc(O)cc1=O	2	-6	i	-7	-5	-20	-3	2
O=C(C1=C[C@@H](c2ccc(Br)cc2)C[C@@H](OCCCCO)O1)N1CCN(Cc2ccccc2)CC1	11	-1	i	-2&-10	34	2[16.7 µM]	0	-17
COc1ccccc1-c1nnc(SCCN2CCOCC2)n1-c1ccc(C)cc1	25	12	i	-8	-4	-14	3	6
CSc1nc2sc3c(c2c2nnnn12)CCCC3	-1	-8	i	·	-5	-24	-4	-3
O=C(NC(=S)Nn1cnc2c(cnn2-c2ccccc2)c1=O)c1ccccc1	-9	-5	i	·	·	-17	3	2
CCOc1ccc(S(=O)(=O)N(CC)CC(=O)N2CCCC2)cc1	5	5	i	-8	-12	3	0	-2
CN(C)C(=O)CSc1nnc(CCNC(=O)OC(C)(C)C)o1	-1	2	i	-27	-9	-1	-1	6
CCOC(=O)NC(=O)CN1C(=O)NC2(CCc3ccccc32)C1=O (configuration not stated)	-3	6	i	-24	12	-2	0	3
O=C(CNS(=O)(=O)/C=C/c1ccccc1)OC1CCOC1=O (configuration not stated)	-7	-4	i	-12	4	9	1	2
CN1CCN(c2oc(-c3ccccc3)nc2S(=O)(=O)c2ccc(Br)cc2)CC1	3	-4	·	-5	-4	·	3	-2
CCCC1SCC(C)(C)NC1=O (configuration not stated)	·	·	·	-14	·	-4	0	2
COc1cccc2sc(NN)nc12	22	33	i	·	14	1	3	1
CCc1nc2c(OCc3ccccc3)cccn2c1N(C)C(=O)c1ccco1	·	·	·	-36	·	7	-1	-5
C/C(=N\OC(=O)c1ccc(F)cc1)c1nccs1	10	5	i	-30	8	8	-2	2
Cc1ccc(NCC(=O)c2ccc([N+](=O)[O-])cc2)cc1	-6	-19	i	·	9	·	-48	5
Nc1cc(C(=O)c2ccccc2)ccc1N1CCOCC1	-14	-4	i	2	10	-9	1	2

Screens (PubChem BioAssay)
